# D2 ag: human D2 receptor agonism in beta-arrestin assay; P14416; DiscoveRx PathHunter D2 beta-arrestin, luminescence, 90 min; 100% = 57 uM dopamine signal; activation, % (concentration not given with the values); 0.084% of 360,000 active; AID 624465; in the data active = activation above about 40%; inconclusive = about 15% to 40%; inactive = below about 15%; note: compound concentration not given in the record; the text of the record calls up to 30% inactive
#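 DiscoveRx PathHunter D2 beta-arrestin cells (2,100/well) attached overnight, then compound-stimulated 90 min at 37 C in HBSS/10 mM HEPES/0.1% Tween-20 buffer; beta-galactosidase complementation read by luminescence after 1 h at ambient temperature. Dopamine 57 uM final (EC100) as control.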
# Sfp inh: blocks B. subtilis Sfp PPTase activity. Q9F4F7. Biochemical Sfp PPTase activity, qHTS. Potency, µM, for inactives: max response, negative = inhibition, actives largely listed as inhibitors. 3.5% of 310,000 active. AID 1490; active = well fitted inhibition curve with a large enough effect; inconclusive = small, poorly fitted or top-dose-only effect, or another doubt; inactive = no such curve, though single readings can be large or run the other way;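 note: the enzyme is Sfp with the accession as filed and its product quenches rhodamine fluorescence; potency is the fitted concentration of half-maximal effect; 0% = enzyme reaction without inhibitor and -100% = no enzyme wells; top concentration of the series not given in the record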
#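 Compounds were incubated with enzyme (final 15 nM) for 15 min at room temperature before substrate addition started the reaction. Fluorescence at 525 nm excitation, 598 nm emission was recorded immediately and after 30 minutes.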
# CtBP-E1A inh: CtBP/E1A binding inhibition; activity change, % (no concentration beside the values); 0.49% of 340,000 active; AlphaScreen GST-E1A/His-CtBP binding, 1536-well; hits give low values; control for the full effect not named in the record; in the data active means activity change below about -65%; inconclusive means about -30% to -65%; inactive means above about -30%; note: % is set by controls: 0 for no effect and ±100 for the full control effect; compound concentration not given in the record
#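 Steps: dispense buffer (Tris pH 8.0, NaCl 300 mM, TCEP 1 mM, BSA, Tween 20); add 5X protein mix (GST-E1A, His-CtBP, 125 nM each); pin 23 nL compound; 2 h at 37 °C, dark; add 5X beads (50 ug/mL); 1 h; read.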
# PINK1 modulator: PINK1 expression modulation; Potency, µM (series often up to 76.6 µM), inactives show at the highest dose activation (PINK1 increase), hits mostly activators; PINK1 immunofluorescence, high-content cytometry, 24 h; AID 624263; 0.2% of 410,000 active; active = well fitted activation curve with a large enough effect; inconclusive = small, poorly fitted or top-dose-only effect; inactive = flat fitted curve, though single readings scatter; cell line not stated here;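 note: potency is the fitted concentration of half-maximal effect; % of control where 0% means no effect; nearly all actives have a fitted effect of over 65% in size; a mitochondrial uncoupler was the plate control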
#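 Stable cell line treated 24 h with compounds at 5 concentrations (CCCP controls), then fixed and immunostained for PINK1 plus nuclear and cell stains; PINK1 immunofluorescence quantified by laser-scanning microplate cytometry.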
# D2 PAM: potentiates the human D2 dopamine receptor allosterically | P14416 | DiscoveRx D2 beta-arrestin cells, luminescence, 90 min; 100% = 57 uM dopamine signal | potentiation, % (concentration not given with the values) | 0.23% of 360,000 active; active = potentiation of 50% or more; inconclusive = 30% to 50%; inactive = 30% or less;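 note: compound concentration not given in the record; tested on top of an EC20 dose of dopamine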
#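 D2 cells co-treated with compound plus 50 nM dopamine (EC20) for 90 min at 37 deg C to detect potentiation. Beta-arrestin recruitment was read as enzyme-fragment luminescence after 1 h at ambient temperature. Full response was set by 57 uM dopamine.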
# TRPV1 PAM: enhances activation of the human vanilloid receptor TRPV1 | Q8NER1 | TRPV1-expressing cells, Fluo-8 calcium influx, capsaicin EC20 potentiation; host cell line not named in the record; control for the full effect not named in the record | potentiation, % at 8.33 µM | 0.02% of 320,000 active | AID 540277; active means potentiation above 80%; inconclusive means 30% to 80%; inactive means below 30%; note: 0% is about no effect
#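 Cells expressing TRPV1 were dye-loaded with Fluo-8 and read kinetically: 10 s baseline, 3 min after compound (agonist portion), then 2 min after EC20 capsaicin (allosteric enhancer portion). Calcium-bound dye fluorescence at 480/520 nm.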
# Six1-Eya2 inh: inhibitors of human Six1/Eya2 interaction; AlphaScreen GST-Six1/His-Eya2 binding, biochemical; hits give low values; control for the full effect not named in the record; 0.56% of 360,000 active; activity change, % (test concentration not listed); Q15475+O00167; in the data active = activity change below about -65%; inconclusive = about -30% to -65%; inactive = above about -30%; note: % is set by controls: 0 for no effect and ±100 for the full control effect; compound concentration not given in the record
# Target sequence (O00167 whole entry, looked up): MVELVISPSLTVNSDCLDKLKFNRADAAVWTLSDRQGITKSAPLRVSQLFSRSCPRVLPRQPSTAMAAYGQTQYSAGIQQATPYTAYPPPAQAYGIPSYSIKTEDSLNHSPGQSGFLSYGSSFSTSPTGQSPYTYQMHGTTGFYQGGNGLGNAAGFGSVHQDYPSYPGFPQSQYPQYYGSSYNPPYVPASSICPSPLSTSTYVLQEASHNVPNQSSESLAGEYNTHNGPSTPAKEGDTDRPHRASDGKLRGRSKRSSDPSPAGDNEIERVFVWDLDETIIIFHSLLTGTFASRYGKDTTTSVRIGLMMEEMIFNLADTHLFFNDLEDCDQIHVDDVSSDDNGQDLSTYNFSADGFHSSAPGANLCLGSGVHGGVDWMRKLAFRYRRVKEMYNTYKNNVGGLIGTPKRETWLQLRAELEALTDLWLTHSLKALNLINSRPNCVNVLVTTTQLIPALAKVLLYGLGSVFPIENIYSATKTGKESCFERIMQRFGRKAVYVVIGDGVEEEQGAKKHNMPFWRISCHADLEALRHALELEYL
# Target sequence (Q15475 whole entry, looked up): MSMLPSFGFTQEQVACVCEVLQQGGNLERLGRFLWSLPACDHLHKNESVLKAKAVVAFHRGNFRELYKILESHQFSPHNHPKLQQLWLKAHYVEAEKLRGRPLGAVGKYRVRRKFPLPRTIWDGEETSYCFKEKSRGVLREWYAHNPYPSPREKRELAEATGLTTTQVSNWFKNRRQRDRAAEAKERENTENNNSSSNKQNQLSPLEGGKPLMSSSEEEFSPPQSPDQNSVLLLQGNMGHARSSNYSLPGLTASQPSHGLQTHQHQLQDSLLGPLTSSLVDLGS
#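 AlphaScreen with GST-Six1 and His-Eya2 (5X mix: 250 nM and 500 nM), glutathione donor and nickel acceptor beads; buffer 50 mM Tris pH 8.0, 300 mM NaCl, 1 mM TCEP; 1 h at 37 C in the dark.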
# Starred values were filed as active, the others as inactive; ? = inconclusive; · = not tested or not shown; & = joins results of further samples; [ ] = another dose, or the depositor's remark.
entry	smiles	D2 ag	Sfp inh	CtBP-E1A inh	PINK1 modulator	D2 PAM	TRPV1 PAM	Six1-Eya2 inh
1	Cc1ccccc1OCCC(=O)OCC(=O)NC(C)c1ccccc1 (centres undefined)	-0.4	22%	5	3.7%	-4	-9	-1
2	COC(=O)CSc1ncnc2c1sc1nc3c(cc12)COC(C)(C)C3	-0.9	-8%	10	5.4%	4	24	3
3	Cc1ccccc1C(=O)Nc1cccc(-c2cn3ccccc3n2)c1	12	-4%	-13	0.1%	3	-3	-14
4	O=C1NN=C(c2ccc(Cl)cc2)CC1c1cccc(Br)c1 (centres undefined)	1.5	-9%	-3	1.9%	-2	-6	-2
5	COc1ccc(C(=O)NCc2ccccc2CN2CCCC2)cc1S(=O)(=O)Nc1ccc(C)cc1	-0.5	·	·	1.3%	-13	1	-3
6	CCn1c(SCc2nc3scc(-c4ccccc4)c3c(=O)[nH]2)nnc1-c1ccc(Cl)cc1	0.5	7%	-5	?	3	-48	6
7	CSc1cccc(NC(=O)COc2ccccc2)c1	-0.9	-5%	7	-0.9%	-3	-16	3
8	Cc1cc(C)n2c(SCC(=O)NCc3ccc4c(c3)OCO4)nnc2n1	-4.2	71µM*	·	1.3%	-8	-10	-17
9	Cc1noc(C)c1S(=O)(=O)Nc1cccc(C(F)(F)F)c1	3.0	9%	14	0.1%	3	8	0
10	O=C(NCCCN1CCOCC1)c1onc(CSc2ccccn2)c1C(=O)NCCCN1CCOCC1	-2.9	·	5	0.6%	-2	·	10
11	COc1ccc(-c2csc(NC(=O)C3=COCCO3)n2)c(OC)c1	-0.6	·	-5	-0.1%	10	-6	-9
12	COc1cccc(/C=N/NC(=O)c2c(C)nc3ccc(Br)cn23)c1O	-4.0	21%	-91*	1.5%	-4	6	-92*
13	Cc1onc(-c2ccccc2Cl)c1C(=O)NCCn1c(C)cc2ccccc21	-3.3	8%	-12	-0.6%	-4	8	-23
14	COc1ccccc1[C@@H]1C(c2cccc(Cl)c2)=NN(c2ccccc2)[C@H]1C(=O)N1CCOC1=O	0.2	6%&1%	·	0.5%	-2	1	40
15	O=C(CNc1ccc(Br)cc1)c1ccc(Br)s1	-12	6%	-5	5.2%	-27	27	-11
16	O=C1C=C(c2ccc3c(c2)oc2ccccc23)C[C@@H](c2ccc(Cl)cc2)C1	-5.9	·	-12	-0.9%	-2	-1	3
17	COCCN(C(=O)COC(=O)CCc1ccccc1)c1c(N)n(Cc2ccccc2)c(=O)[nH]c1=O	-0.4	·	-2	0.8%	-6	-3	4
18	O=C1CC(c2ccc(F)cc2)CC2=C1C=Nc1ccccc1N2 (centres undefined)	1.8	11%	0	6.4%	-17	-8	1
19	CCc1nc2ccccc2n1CC(=O)N(C(C)CC)C1CCS(=O)(=O)C1 (centres undefined)	-4.4	-11%	0	-1.4%	6	-1	1
20	COc1ccc(C(=O)Nc2ccccc2C(=O)NC(Cc2ccc(O)cc2)C(=O)NNC(=O)c2ccncc2)cc1 (centres undefined)	2.0	-3%	-2	1.8%	-4	2	-1
21	CC(/C=C/c1ccccc1)=N\NC(=O)C1CC1(C)c1ccccc1 (centres undefined)	-4.3	3%	0	2.5%	-30	12	-11
22	CC(=O)NC(c1ccccc1)c1cc(Cl)c2cccnc2c1O (centres undefined)	-12	1%	-91*	0.9%	-19	15	-87*
23	Cn1c(CNC(=O)c2ccccc2F)nnc1SCC(=O)N1CCN(c2ccccc2)CC1	0.6	14%	-18	1.6%	-2	0	-7
24	O=c1[nH]c(=S)[nH]cc1S(=O)(=O)c1cccc(Cl)c1	-1.9	-26%	-6	0.4%	-13	-2	-2
25	CC1CN(Cc2c(O)ccc3c(=O)c(-c4ccccc4Cl)coc23)CC(C)O1 (centres undefined)	-1.8	5%	-8	-0.3%	-15	-6	2

entry	smiles	D2 ag	Sfp inh	CtBP-E1A inh	PINK1 modulator	D2 PAM	TRPV1 PAM	Six1-Eya2 inh
26	C=CCn1c(-c2csc(-c3ccc(Cl)cc3)n2)n[nH]c1=S	-5.8	0%	-4	0.2%	1	-2	-14
27	O=C(Nc1c2c(nn1-c1ccccc1)CS(=O)(=O)C2)c1cc2ccccc2o1	-3.7	-13%	-16	2.1%	-5	15	19
28	Cc1cc(C)cc(NC(=O)c2ccc(CSc3nnc(C)s3)cc2)c1	-0.6	-4%	8	0.0%	-10	-16	0
29	O=C(NCc1ccco1)C1CCCN(S(=O)(=O)Cc2ccccc2)C1 (centres undefined)	-1.8	13%	4	·	-8	7	4
30	CN(C)C(=O)CCc1ccc2c3c([nH]c2c1)[C@]1(C)[C@@H](C(=O)N2CCOCC2)C[C@H](CC(=O)NCC24CC5CC(CC(C5)C2)C4)C(=O)N1CC3	-1.9	·	5	2.2%	-4	·	6
31	CC(C)NC(=O)C1(C)Cc2c(-c3cccc(C(N)=O)c3)ccnc2O1 (centres undefined)	-7.6	·	28	2.2%	3	·	20
32	S=C(CN1CCCC1=S)NCCc1ccccc1	-0.4	-13%	2	-0.3%	-4	-12	4
33	NC(=O)N=Nc1c(O)[nH]c2ccc([N+](=O)[O-])cc12	-2.3	-4%	-72*	2.5%	-8	20	?
34	CCOC(=O)[C@]12CCC=C1N(CCC1=CCCCC1)C(=O)[C@H](CC(=O)NCc1cccs1)C2	·	·	-3	7.8%	·	·	3
35	CCC(C)C(=O)Nc1nnc(CCc2ccccc2)s1 (centres undefined)	1.7	10%	10	0.9%	-2	-36	4
36	NS(=O)(=O)c1cnccc1Nc1ccc(Cl)cc1	1.2	0%	0	-2.8%	21	-18	2
37	O=C(Nc1cccc2ccccc12)c1cnsn1	-6.8	12%	·	-0.4%	-8	-9	1
38	O=C1CCN(CCc2ccccc2)CCN1CCOc1ccccc1	-2.8	-1%	7	-0.2%	-25	-16	-1
39	O=C(O)Cc1c[nH]c2ccc(O)cc12	-0.6	·	1	1.7%	-3	·	-1
40	CC(C(=O)Nc1ccc(C(=O)O)c(O)c1)N1C(=O)/C(=C\c2ccco2)SC1=S (centres undefined)	-2.1	50µM*	·	-0.4%	-9	5	?
41	Cc1onc(-c2ccccc2)c1C(=O)NNC(=O)c1ccccc1O	-8.2	·	13	-3.2%	-63	-7	4
42	COc1cc(OC)cc(-c2n[nH]c(=S)n2-c2cc(OC)ccc2OC)c1	-1.3	-2%	2	7.8%[38.3 µM]	-10	?	-2
43	COc1ccc(/C=N/NC(=O)c2cccnc2)cc1COc1ccc([N+](=O)[O-])cc1	-0.8	0%	-3	2.8%	-3	-9	-3
44	CCN(CC)S(=O)(=O)c1ccc(Cl)c(C(=O)NNC(=O)c2csc(N3CCOCC3)n2)c1	4.8	·	-6	-0.8%	-3	·	1
45	COc1ccc(C(C)=O)cc1CSc1nnc(Nc2ccccc2)s1	3.5	-6%	11	5.5%	-16	-8	-4
46	CC(C)(CS(=O)(=O)[O-])NC(=O)CC[N+](C)(C)CCO	-1.1	3%	16	2.4%	-2	-7	27
47	N#CCCN(CCC#N)C(=O)c1ccc2c(c1)OCO2	-4.3	24%	28	0.5%	-12	-8	19
48	O=C(Cc1cccc(C(F)(F)F)c1)NCc1ccc(Cl)cc1Cl	1.0	4%	15	6.1%	17	-25	17
49	S=c1nc[nH]c2c1ncn2C1CCCC1	-1.2	11µM*	·	0.7%	8	1	-5
50	O=C1c2ccccc2C(=O)N1CSc1nnc2c3ccccc3n(CCc3ccccc3)c2n1	-2.2	4%	-1	-1.9%	-27	-1	5

# Overlap with the part before: 3 entries, then new ones.
entry	smiles	D2 ag	Sfp inh	CtBP-E1A inh	PINK1 modulator	D2 PAM	TRPV1 PAM	Six1-Eya2 inh
48	O=C(Cc1cccc(C(F)(F)F)c1)NCc1ccc(Cl)cc1Cl	1.0	4%	15	6.1%	17	-25	17
49	S=c1nc[nH]c2c1ncn2C1CCCC1	-1.2	11µM*	·	0.7%	8	1	-5
50	O=C1c2ccccc2C(=O)N1CSc1nnc2c3ccccc3n(CCc3ccccc3)c2n1	-2.2	4%	-1	-1.9%	-27	-1	5
51	CCCCNC(=O)CC1N=C2c3ccccc3N=C(SCC(=O)Nc3cccc(OC)c3)N2C1=O (centres undefined)	3.8	2%	4	-1.4%	11	6	7
52	CCC(CC)C(=O)OCC(=O)NC12CC3CC(CC(C3)C1)C2	-1.7	12%	1	2.9%[38.3 µM]	2	-16	4
53	Cc1cn(CC(=O)NCc2ccccn2)c(=O)[nH]c1=O	0.1	·	2	0.1%	·	·	-10
54	CC1=CC(C)(C)N2C(=O)C3(C(C#N)=C(N)OC4=C3C(=O)CCC4)c3c(C)c(C)cc1c32 (centres undefined)	-1.0	29%	-4	4.3%	-7	-3	7
55	CCC(Sc1nc2n[nH]c(C)c2c(=N)n1-c1cccc(Cl)c1C)C(=O)N(CC)CC (centres undefined)	-3.2	-3%	0	21%[38.3 µM]	-3	4	-2
56	CC(C)CCn1c(COc2ccccc2)n[nH]c1=S	-5.7	-9%	2	-0.8%	-9	0	1
57	COc1ccc(C(=O)N/N=C(\C)c2cccc(NC(=O)c3ccc(F)cc3)c2)c(OC)c1	-5.7	21%	?	4.3%	-13	23	-13
58	COc1ccc(S(=O)(=O)N2CCOCC2)cc1NC(=O)COC(=O)c1[nH]c(C)c(C(C)=O)c1C	-0.7	·	?	14%	-3	·	-22
59	Cc1ccc(NC(=O)CCCn2nc(C)c3c(C)n(-c4ccccc4)nc3c2=O)cc1C	-0.2	10%	-3	0.0%	-6	4	-1
60	Cc1occc1C(=O)N/N=C/C=C/c1ccccc1[N+](=O)[O-]	-3.9	2%	-12	0.3%	-5	-11	-6
61	Nc1ccc(Oc2ncccn2)cc1	?	-7%	·	12%	-5	-4	?
62	COc1ccccc1CNC(=S)NC1CCCCC1	-5.5	21%	6	1.2%	-7	-20	-20
63	COc1ccc(Cl)cc1NC(=O)C[n+]1ccccc1	-4.2	4%	1	0.9%	-12	-6	3
64	COc1ccc2cc(/C(C)=N/NC(=O)c3cc(-c4cccnc4)nc4ccccc34)ccc2c1	-1.3	-9%	-3	0.6%	-1	9	5
65	Cc1ccc(S(=O)(=O)N2CCOCC2)cc1N/N=C(\C#N)c1nc2ccccc2[nH]1	-7.5	13%	·	7.8%	-3	19	-11
66	CCOC(=O)C1(Cc2ccccc2C(F)(F)F)CCN(C(=O)c2cc(C)n(C)n2)CC1	-2.5	-7%	6	1.5%	5	-5	0

# Screening results from PubChem.
